Bioassay records (PubChem)
VDR inh: Inhibitors of the vitamin D receptor (VDR): qHTS. Vitamin D3 receptor (Homo sapiens), P11473. VDR-SRC2-3 peptide fluorescence polarization, 2 h. Potency, µM, for inactives: max response, negative = inhibition, usual class: inhibitors. hit rate 0.93% among 400,000. AID 504847, 2011; active = well fitted inhibition curve with a large enough effect; inconclusive = small, poorly fitted or top-dose-only effect, or another doubt; inactive = no such curve, though single readings can be large or run the other way; also: series mostly up to about 120 µM
Target sequence (P11473 whole entry, looked up): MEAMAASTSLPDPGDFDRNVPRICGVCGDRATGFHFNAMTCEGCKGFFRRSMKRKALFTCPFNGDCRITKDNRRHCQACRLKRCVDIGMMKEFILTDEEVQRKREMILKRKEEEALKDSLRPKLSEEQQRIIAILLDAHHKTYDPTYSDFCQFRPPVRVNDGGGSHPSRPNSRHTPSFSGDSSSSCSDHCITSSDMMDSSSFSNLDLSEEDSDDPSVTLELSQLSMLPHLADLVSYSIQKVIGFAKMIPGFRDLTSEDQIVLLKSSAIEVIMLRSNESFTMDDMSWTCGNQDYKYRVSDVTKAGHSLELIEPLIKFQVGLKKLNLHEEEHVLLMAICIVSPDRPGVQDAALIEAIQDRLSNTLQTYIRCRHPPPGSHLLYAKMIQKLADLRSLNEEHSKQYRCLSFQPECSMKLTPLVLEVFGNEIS
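Measured by FP: displacement of SRC2-3 coactivator peptide from VDR by library compounds, following a two-hour ambient incubation.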
* hit, by the source's call; ? = inconclusive; & = joins results of further samples. % is scaled to controls: 0 for no effect and ±100 for the full control effect; potency is read from the fitted curve at half-maximal effect.

SMILES,VDR inh
CCOC(=O)c1c(C)[nH]c(C(=O)C(C)OC(=O)c2ccc(NC(=O)CC#N)cc2)c1C (configuration not stated),-2%
CCCCC(=O)Nc1c2c(nn1-c1ccc(C)cc1)CS(=O)(=O)C2,13%
COc1ccc(CN2CCNC(=O)C2CC(=O)NCCC2=CCCCC2)cc1OC (configuration not stated),-11%
Cc1ccccc1-c1nc(CN2CCSCC2)c(C)o1,-3%
CC(C)(C)Sc1nc(O)cc(=O)[nH]1,-15%
CCOC(=O)/C(C#N)=C/c1cc2ccccc2nc1Cl,-2%
O=C(Nc1nnc(Cc2ccccc2)s1)c1cccnc1,-9%
O=C(OCCc1cc2ccccc2c(=O)o1)c1cccc(Br)c1,-9%
CCOc1c(Cl)cc(/C=N/O)cc1OC,-17%
O=C(c1cc2c(s1)CCCC2)N1CCN(Cc2ccc3c(c2)OCO3)CC1,10%
COc1ccccc1OCc1ccc(C(=O)NCC(C)C)o1,1%
COc1ccccc1CNc1ncncc1-c1ccc(N(C)C)cc1,?
Cc1nnc(SCC(=O)NCC2CCCCC2)n(N)c1=O,4%
O=C(COC(=O)CN1C(=O)c2ccccc2C1=O)NC1CCCC1,6%
Cc1ccc(OCCC(=O)OCC(=O)NC(=O)NCc2ccccc2)cc1,16%

(list continues)
SMILES,VDR inh
Cc1cc(NC(=O)COC(=O)c2ccco2)no1,-7%
O=C1CC(NS(=O)(=O)c2ccc([N+](=O)[O-])cc2)CN1c1cccc(F)c1 (configuration not stated),-12%
Cc1ccc(S(=O)(=O)N2CCN(C(=O)CCn3cncn3)CC2)cc1,-11%
CCCNC(=O)Nc1cccc(NC(C)=O)c1,14%
COc1ccc(-c2nc3scc(CCNS(=O)(=O)c4ccc(F)c(C(F)(F)F)c4)n3n2)cc1OC,6%
Cc1ccc(NC(=O)CN2CCCCC2)c2c1CC(C)(C)O2,-8%
COc1cc(/C=N/NC(=O)CC(=O)NC2CCCCC2)ccc1O,-18%
CCOC(=O)CCNC(=O)c1ccc2nc(C3CCCCC3)oc2c1,-5%
Cc1ccc(N/N=C(\C#N)C(=N)N2CCCCCC2)cc1,-14%
Cc1cc(OCc2nn[nH]n2)c2c(-c3ccccc3)cc(=O)oc2c1,-3%
O=C(O)CCCC(=O)NNC(=O)c1cccc(Br)c1,0%
O=C(COc1ccccc1Cl)Nc1cc(Cl)ccc1O,-4%
Cc1ccc2cc(C3CC(c4ccco4)=NN3C(=O)CCCC(=O)O)c(Cl)nc2c1 (configuration not stated),-12%
CC(OC(=O)c1cccc(-n2cnnn2)c1)C(=O)N(C)c1ccccc1 (configuration not stated),16%
Cc1ccccc1CSc1nc2ccsc2c(=O)n1CCC(C)C,-7%

(continued)
SMILES,VDR inh
CC(=O)NC(Cc1ccc(F)c(F)c1)C(=O)NC1CCN(C(=O)c2ccc(Cl)cc2)CC1 (configuration not stated),-1%
CC1CCN(C(=O)CSC2=NS(=O)(=O)c3cc(F)ccc3N2)CC1,-11%
O=C(Cn1cnc2c(oc3ccccc32)c1=O)NCc1ccco1,-7%
CCOC(=O)c1c(NC(=O)c2cc3nc(-c4ccc(OC)cc4)cc(C(F)(F)F)n3n2)sc2c1CCC(C)C2 (configuration not stated),6%
CCOc1ccc(CNC(=O)Cn2c(=O)c3cccn3c3ccc(F)cc32)cc1,4%
CCOC(=O)c1[nH]c2ccc(OC)cc2c1NC(=S)N1CCN(c2ccccc2)CC1,-5%
Cc1cccc(-c2nnc3n2N=C(c2ccccc2Br)CS3)c1,-19%
O=c1[nH]c(Cc2ccc(F)cc2)nc2scc(-c3ccc(F)cc3)c12,?
CCCC(=O)Nc1nc2ccc(S(=O)(=O)N3CCCCC3)cc2s1,0%
CC1CCCCC12NC(=O)N(CC(=O)c1ccc[nH]1)C2=O (configuration not stated),3%
Cc1ccccc1Cc1c(C)nc2c(C(=O)N3CCN(Cc4ccc5c(c4)OCO5)CC3)cnn2c1C,-15%
CCCCCNC(=O)CCn1c(=O)oc2ccccc21,4%
Cc1cc(NC(=O)c2ccc(Cl)cc2)c(C)cc1O,-5%
CCCS(=O)(=O)N1CCC(C(=O)NCc2ccco2)CC1,11%
CC(C)n1nnnc1SCC(=O)N1CCN(C(=O)c2ccco2)CC1,-3%

The listing continues:
SMILES,VDR inh
N=C1C(c2nc3ccccc3s2)=C(O)CN1CCCO,1%
CCCCN1C(=O)N(c2nnc(C(C)(C)C)s2)C(O)C1c1ccc(C)cc1 (configuration not stated),-7%
Cc1nnc(SCCn2c(N3CCN(C)CC3)nc3c2c(=O)n(C)c(=O)n3C)s1,22%
CCC(=O)N1CCc2cc(Br)cc(S(=O)(=O)CCC(=O)N3CCN(c4cc(C)ccc4C)CC3)c21,17%
COc1ccc(C)cc1NC(=O)c1cc(S(=O)(=O)N2CCN(c3cccc(C)c3C)CC2)ccc1F,6%
Cc1cc(NC(=O)/C(C#N)=C/c2ccc(-c3cccc(C(F)(F)F)c3)o2)n(-c2ccccc2)n1,1%
CC(C)NC(=O)Cn1cc(S(=O)(=O)N2CCCC2)c(S(=O)(=O)N2CCCC2)c1,-14%
O=C1/C(=C/c2ccc(O)c(O)c2)Oc2cc(O)ccc21,-11%
C=C(CN(C)C)C(=O)c1ccc(C)cc1C,18µM*
COc1ccc(OC)c(NC(=S)NC(=O)c2ccc(Br)o2)c1,2%
COCC(=O)N1CCC[C@@]2(CCN(C(=O)Nc3ccccc3)C2)C1,0%
CN(Cc1cccc(F)c1)C(=O)CSc1nnc(C2CC2)n1C1CC1,-10%
O=C(N/N=C/c1cccnc1)c1sc2ccccc2c1Cl,18%
COCc1c(C(=O)Nc2ccc(C)c(S(=O)(=O)N3CCOCC3)c2)oc2ccccc12,3%
CC(=O)Nc1nnc(Cc2ccccc2)s1,-5%

Following part
SMILES,VDR inh
CCc1ccc(N(C(C)=O)c2nc(CCl)cs2)cc1,-16%
CCC(CO)Oc1cc(NC(=O)c2ccc([N+](=O)[O-])cc2)c2ncn(C(C)C)c2c1 (configuration not stated),-24%
CN1CCN(S(=O)(=O)c2ccc(Cl)c3ccccc23)CC1,-10%
COc1ccc(N(Cc2nnc3n2CCCCC3)C(=O)Nc2ccc(Cl)cc2)cc1Cl,20%
CCOc1ccccc1C1N(c2ccc(F)cc2)C(=O)C2CCCN21 (configuration not stated),0%
CC(NS(=O)(=O)c1ccccc1)C1CC2CCC1C2 (configuration not stated),7%
COc1ccc(N2CCN(C(CNS(=O)(=O)c3ccc(OC)c(C)c3)c3ccco3)CC2)cc1 (configuration not stated),-4%
O=C(COc1ccccc1)Nc1ccc2nc(SCC(=O)N3CCc4ccccc43)sc2c1,4%
COc1ccc(C2=NS(=O)(=O)N(C)C(C(=O)Nc3cc(OC)c(OC)c(OC)c3)=C2)cc1,-19%
CCOC(=O)CCc1c(C)c(C#N)c2[nH]c3ccccc3n2c1=O,-7%
Cc1ccccc1C(=O)NNC1CC(=O)N(c2ccc3c(c2)OCCO3)C1=O (configuration not stated),16%
CC(C)(C)c1ccc(C(=O)Nc2cccc(C(=O)N3CCOCC3)c2)cc1,3%
Nc1ccc2oc3ccccc3c2c1,-7%
Cc1c(-c2nc(-c3ccc4c(c3)OCO4)no2)nnn1-c1ccc(Br)cc1F,14%
Nc1c(-c2ccccn2)cnn1-c1nc(-c2ccc(F)cc2)cs1,-10%

Next section
SMILES,VDR inh
COc1ccc(OC)c(S(=O)(=O)N2CCC(C(=O)N3CCc4ccccc4C3)CC2)c1,-7%
COc1ccccc1N1CCN(c2ccc3cc(S(=O)(=O)N4CCCCC4)ccc3n2)CC1,-13%&7%
O=C(O)CCCn1cc(NC(=O)c2ccc(Br)o2)cn1,0%
Cc1ccc(CN2CCCn3nc(C(=O)NCCC(C)C)cc3C2=O)cc1,-9%
CCOC(=O)C1=C(COC(=O)CNC(=O)c2ccc(C(C)(C)C)cc2)NC(=O)NC1C (configuration not stated),12%
Nc1cc(=O)nc(SCC(=O)Nc2ccccc2)n1-c1ccccc1,-15%
O=C(CN1CCN(c2cccc(C(F)(F)F)c2)CC1)NCc1ccccc1,26%
COc1ccc(CNc2cc(-c3ccoc3)ncn2)c(OC)c1,11µM*
CCCn1c(-c2cc(OC)c(OC)c(OC)c2)nc2nc3ccccc3nc21,4%
Cc1ccc(CN(C(=O)c2ccc(OCC(C)C)cc2)c2ccccn2)o1,4%
CCCn1c(C(C)Nc2nc(-c3ccc(Cl)c([N+](=O)[O-])c3)cs2)nc2cc(Cl)c(N3CCCCC3)cc21 (configuration not stated),-8%
CCC/S(CC1CC1(Cl)Cl)=N\S(=O)(=O)c1ccc(C)cc1 (configuration not stated),1%
Cc1ccc2c(c1)N(CC(=O)NCCCc1ccccc1)C(=O)c1cccnc1O2,-6%
CCCCNC(=O)NS(=O)(=O)c1ccc(NC(=O)C(NC(N)=O)C(C)CC)cc1 (configuration not stated),-1%
CN(c1ncnc2c1c(-c1ccccc1)cn2-c1ccc(F)cc1)C1CCCCC1,14%

By substructure, those above with a nitro group on carbon (3)
SMILES,VDR inh
O=C1CC(NS(=O)(=O)c2ccc([N+](=O)[O-])cc2)CN1c1cccc(F)c1 (configuration not stated),-12%
CCC(CO)Oc1cc(NC(=O)c2ccc([N+](=O)[O-])cc2)c2ncn(C(C)C)c2c1 (configuration not stated),-24%
CCCn1c(C(C)Nc2nc(-c3ccc(Cl)c([N+](=O)[O-])c3)cs2)nc2cc(Cl)c(N3CCCCC3)cc21 (configuration not stated),-8%

(list continues)
SMILES,VDR inh
Cc1ccc(S(=O)(=O)N2CCN(C(=O)COC(=O)/C=C/c3cccc(Cl)c3)CC2)c(C)c1,-2%
C=CCNC(=O)C1CC(=O)N(c2ccc(C)cc2)C1 (configuration not stated),-18%
CCCCOc1ccc(-c2nnn(C(C)(C)C(=O)OC)n2)cc1,6%
COC(=O)c1c(NC(=O)CN2CCC3(O)CCCCC3C2c2ccccc2OC)sc(C)c1C (configuration not stated),-12%
O=C(NC1CCCCC1)c1cc(Nc2ccccc2)nc2ccccc12,9%
COc1ccc(COC(=O)NNC(=O)c2ccc(OC)cc2)cc1,-3%
CSc1nncc(-c2ccc(F)cc2)n1,-6%
Cc1cccc(NC(=O)CSCC(=O)N(CCC(C)C)c2c(N)n(Cc3ccccc3)c(=O)[nH]c2=O)c1,19%
Cc1nn(CC(=O)N2CCC(C)CC2)c(=O)c2cc3occc3n12,12%
COCc1nnc(NC(=O)c2ccc(S(=O)(=O)N(C)C3CCCCC3)cc2)o1,-1%
O=C(CNC(=O)c1ccncc1)N/N=C/c1cc(Br)ccc1OCc1ccccc1,-9%
COc1ccccc1N=C(C)C1=C(O)CC(c2ccccc2)CC1=O (configuration not stated),-25%
Cc1[nH]nc2c1C(c1ccccc1F)NC2=O (configuration not stated),-4%
S=c1nc(COc2ccccc2)[nH]c2ccccc12,-20%
O=C(NC1CCCCC1)c1cc(-c2cccc(Cl)c2)on1,23%

More compounds.
SMILES,VDR inh
CC(C)(C)NC(=O)N1CCN(c2nc(-c3ccccc3)ns2)CC1,-14%
Cc1cc(C)c2cc3c(N)c(C(=O)N4CCc5ccccc5C4)sc3nc2c1,-1%
CCOc1ccc(C(=O)N2CCCC2)cc1,-6%
CCc1nc(SCC(=O)Nc2nc3c(s2)CCCC3)c2ccccc2n1,-24%
Cc1cc(C)c(C)c(S(=O)(=O)Nc2cccc(-n3cnnn3)c2)c1C,7%
Cc1nn(C(C)C(=O)NC(C)CCc2ccccc2)c(=O)c2cc3occc3n12 (configuration not stated),-4%
CC(C)(C)c1ccccc1NC(=O)CSc1nc(-c2cccs2)cc(C(F)(F)F)n1,9%
COc1ccccc1NC(=O)CSc1nc2nccnc2c(=O)n1CCc1c[nH]c2ccccc12,10%
CN1CC(c2ccccn2)C2(SC(=S)N(Cc3ccccc3)C2=O)C12C(=O)Nc1ccccc12 (configuration not stated),1%
Cc1c(C(=O)N2CCOCC2)oc2ccc(Br)cc12,-8%
Cc1ccc(CNc2nc(C)c(C(=O)N(C)C)s2)cc1,-17%
Cc1cc(C)n(-c2nc3cc(Cl)ccc3nc2N2CCN(c3cccc(C)c3C)CC2)n1,-13%
N#Cc1nc(-c2ccccc2)oc1NCc1ccco1,2%
COc1ccc(-n2c(C)cc(C(=O)COC(=O)Cn3cnc4ccccc43)c2C)cc1,4%
Cn1c(=O)cc(OCC(=O)N2CCN(c3ccc(F)cc3)CC2)c2ccccc21,-18%

The list continues:
SMILES,VDR inh
Cc1ccc(C)c(CN2C(=O)c3ccccc3S(=O)(=O)c3ccc(C(=O)N4CCCCC4)cc32)c1,-13%
CCOC(=O)c1sc(=NC(=O)c2ccc(F)cc2)n(C)c1C,-10%
Cc1cc([N+](=O)[O-])c2[nH]c(C(=O)N/N=C/c3ccccc3C(=O)O)c(-c3ccccc3)c2c1,1%
COc1ccccc1NC(=O)COc1ccc(Br)cc1CNCCCN1CCOCC1,-9%
CCOC(=O)N1CCN(C(=O)COC(=O)c2ccc([N+](=O)[O-])cc2Cl)CC1,2%
CCn1c(SCc2ccccc2)nc2cc(S(N)(=O)=O)ccc21,12%

6 compounds out of the list, sorted by heavy-atom count, low to high.
SMILES,VDR inh
N#Cc1nc(-c2ccccc2)oc1NCc1ccco1,2%
CCOC(=O)c1sc(=NC(=O)c2ccc(F)cc2)n(C)c1C,-10%
CCn1c(SCc2ccccc2)nc2cc(S(N)(=O)=O)ccc21,12%
COc1ccccc1NC(=O)COc1ccc(Br)cc1CNCCCN1CCOCC1,-9%
Cc1cc([N+](=O)[O-])c2[nH]c(C(=O)N/N=C/c3ccccc3C(=O)O)c(-c3ccccc3)c2c1,1%
Cc1ccc(C)c(CN2C(=O)c3ccccc3S(=O)(=O)c3ccc(C(=O)N4CCCCC4)cc32)c1,-13%

Some of the compounds tested, so the mix of outcomes need not match the whole.
